Compound activity: PubChem BioAssay, National Center for Advancing Translational Sciences (NCATS)
Rango-impB inh: prevents formation of the Rango-importin beta complex; Potency, µM (titrated, usually from 92.2 µM), inactives show at the highest dose inhibition of complex formation; Q14974; 0.031% of 340,000 active; Rango CFP/YFP FRET sensor + importin beta, 45 min; active = rising FRET ratio curve, often small or poorly fitted; inconclusive = mostly compound fluorescence or quenching in the first reads; inactive = flat curves in all reads;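 also: potency is read from the fitted curve at half-maximal effect; 0% = DMSO wells and 100% = buffer wells lacking importin beta; nearly all actives have a fitted effect of over 15% in size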
Target sequence (Q14974 whole entry, looked up): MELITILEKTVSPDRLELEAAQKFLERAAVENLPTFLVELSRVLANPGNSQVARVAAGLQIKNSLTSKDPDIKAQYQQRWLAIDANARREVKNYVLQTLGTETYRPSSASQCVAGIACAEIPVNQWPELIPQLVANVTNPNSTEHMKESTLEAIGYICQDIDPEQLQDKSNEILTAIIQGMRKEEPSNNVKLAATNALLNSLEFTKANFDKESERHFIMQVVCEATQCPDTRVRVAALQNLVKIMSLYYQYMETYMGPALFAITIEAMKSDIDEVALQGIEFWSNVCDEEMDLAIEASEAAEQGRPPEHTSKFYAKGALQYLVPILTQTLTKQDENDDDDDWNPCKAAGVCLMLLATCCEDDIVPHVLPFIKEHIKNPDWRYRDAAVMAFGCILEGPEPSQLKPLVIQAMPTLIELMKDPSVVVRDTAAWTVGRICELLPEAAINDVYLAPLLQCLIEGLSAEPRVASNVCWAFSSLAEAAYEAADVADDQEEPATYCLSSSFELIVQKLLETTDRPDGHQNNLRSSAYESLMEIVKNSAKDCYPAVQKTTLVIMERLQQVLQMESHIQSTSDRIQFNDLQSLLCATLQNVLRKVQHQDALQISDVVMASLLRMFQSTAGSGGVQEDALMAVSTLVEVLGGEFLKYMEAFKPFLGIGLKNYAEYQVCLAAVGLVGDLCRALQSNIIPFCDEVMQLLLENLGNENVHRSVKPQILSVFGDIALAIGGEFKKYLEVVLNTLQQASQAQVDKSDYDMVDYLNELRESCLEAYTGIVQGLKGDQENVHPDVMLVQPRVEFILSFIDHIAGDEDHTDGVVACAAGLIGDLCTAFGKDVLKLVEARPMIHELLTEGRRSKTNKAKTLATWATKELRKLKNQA
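Inhibition scored from the CFP 486 nm/YFP 530 nm FRET ratio 45 min after adding 0.125 microM importin beta to 50 nM Rango biosensor preincubated 5 min with compound (room temperature, PBS with DTT, Tween-20, BSA). No-importin wells as positive control.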
miR-21 FLuc: miR-21 reporter, rising signal; HeLa miR-21 FLuc reporter, luciferase, 48 h; Potency, µM (series often up to 38.3 µM), without a hit: at the top dose reporter change, positive = more light; AID 2288; 340,000 tested, under 10 active; active = well fitted rising curve with a large enough effect; inconclusive = small, poorly fitted or top-dose-only effect; inactive = no such curve, though single readings can be large or run the other way;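 also: % of control where 0% means no effect; miR-21 action dims this reporter so a rising signal means less miR-21 action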
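Compounds were titrated across several concentrations (up to approximately 40 uM) and incubated 48 hours with HeLa miR-21-FLuc reporter cells (miR-21 target sequence downstream of FLuc, endogenous miR-21). Readout was firefly luciferase luminescence after lytic detection reagent.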
Rango dissoc inh: inhibitors of RanGTP-induced Rango-importin beta complex dissociation | 0.071% of 340,000 active | AID 540253 | Biochemical FRET Rango-importin beta, RanGTP-induced dissociation | Potency, µM (top dose mostly 46.1 µM), inactives show at the top dose activity change, negative = inhibition | O95149+P62826; active means falling FRET ratio curve, often poorly fitted, with flat reads before Ran was added; inconclusive means other falling curves, or compound fluorescence or quenching; inactive means flat or rising ratio curve;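 also: potency is read from the fitted curve at half-maximal effect; % of control where 0% means no effect; nearly all actives have a fitted effect of over 45% in size; -100% = wells without RanGTP and RCC1; the record marks most hits as doubtful in a second field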
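Quantitative HTS using a FRET biosensor: 0.1 uM Rango, 0.25 uM importin beta, 0.6 uM Ran, 2 mM GTP, 0.2 uM RCC1 final, PBS with DTT, Tween-20 and BSA. Post-read taken 45 min after Ran addition.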
GLA inh pH 4.5: inhibitors of human alpha-galactosidase A at pH 4.5; purified enzyme, 4-MU-alpha-Gal fluorescence, pH 4.5; activity change, negative = inhibition, % at 105 µM; 230,000 tested, under 10 active; inconclusive = small, poorly fitted or top-dose-only inhibition, or a rising curve; inactive = flat fitted curve, though single readings scatter; no compound was filed as active;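 also: 0% = full activity with enzyme and -100% = basal without enzyme; dose as in the result columns while the protocol names 77 µM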
* hit, by the source's call; ? = inconclusive; nt = no result given; & = joins results of further samples. A portion of the library. The share of hits here may be higher or lower than overall.

SMILES	Rango-impB inh	miR-21 FLuc	Rango dissoc inh	GLA inh pH 4.5
COC(=O)c1ccn(Cc2ccccc2Cl)n1	-2.1%	-57%	-11%	5
CCN1C(=O)c2ccccc2Sc2ccc(C(=O)NCCN3CCOCC3)cc21	-0.4%	-5%	8%	9
Cc1ccc(NC(=O)COC(=O)CSC(=S)N2CCOCC2)cc1C	?	-3%	8%	-7
O=C(CCC(=O)N1CCOCC1)NCc1cccc(C(F)(F)F)c1	0.0%	nt	12%	nt
O=C(c1cc(S(=O)(=O)N2CCCCC2)ccc1N1CCOCC1)N1CCN(Cc2ccccc2)CC1	1.2%	-1%	16%	-1
COc1cccc(C(c2ccccc2)N2C3CCC2CN(S(=O)(=O)c2ccc(F)cc2)CC3)c1 (centres undefined)	0.3%	nt	17%	nt
CN1C(=O)c2oc3ccccc3c(=O)c2C1c1ccncc1 (centres undefined)	5.2%	-4%	?	4
CC(C)CC(N)c1cn([C@@H](CCC(=O)O)C(=O)N2CCNCC2)nn1 (some centres undefined)	2.0%	-3%	16%	0
CCN(CC)C(=O)c1ccc(-c2nnc(Nc3ccc(C(=O)NC)cc3)c3ccccc23)cc1	-0.2%	16%	-9%	nt
Cn1cccc1/C=C1\SC(=Nc2ccccc2)NC1=O	?	-23%	?	-6
Cn1ccc(NC(=O)c2ccc(Cl)cc2Cl)n1	-4.6%	nt	4%	nt
COc1cc(/C=N/NC(=O)C(N)=O)cc(OC)c1O	6.2%	1%	0%	-17
O=C(CSc1nnc(-c2ccco2)n1-c1ccccc1)N1CCN(C(=O)c2ccco2)CC1	-0.2%	-3%	1%	6
O=C(CSc1ccc2ccccc2n1)NCCC1=CCCCC1	-0.3%	17%	1%	-5
CCn1ccc(C(=O)Oc2ccc(C(C)C)cc2)n1	0.6%	-10%	0%	-21
CCc1c(C)nc(N)n2c(SCC(=O)N3CCCC(C)C3)nnc12 (centres undefined)	-2.7%	9%	1%	10
CCC(CO)Oc1cc(NCc2ccccc2O)c2ncn(C(C)C)c2c1 (centres undefined)	-5.6%	nt	29%	nt
CN(CC(=O)NCc1ccco1)CC(=O)Nc1ccc(F)c(F)c1F	2.4%	nt	5%	nt
COC(=O)c1[nH]c(C)c(/C(O)=C2\C(=O)C(=O)N(CCN(C)C)C2c2cccs2)c1C (centres undefined)	0.1%	-2%	16%	-20
CCOC(=O)Cn1c(=O)c(-c2ccccc2NCc2ccccc2)nc2ccccc21	3.7%	nt	15%	nt
CCOC(=O)Cn1c(=O)cc(C)c2cccc(C)c21	-0.8%	3%	1%	-12
COc1ccc(C2C(C(=O)N3CCCCC3)c3ccccc3C(=O)N2C)cc1 (centres undefined)	3.6%	2%	5%	-3
Cc1ccc(Nc2cc(C)nn2-c2nc(C)cc(=O)[nH]2)cc1	4.4%	?	-13%	5
CCOC(=O)CNC(=O)CSc1nc(Cc2cccs2)nc2ccccc12	?	2%	-2%	-4
Cc1noc(C)c1S(=O)(=O)Nc1ccc(C(=O)O)cc1	0.9%	-1%	-12%	-7
CCc1cccc(C)c1N(C(=O)Cn1c(=O)[nH]c2ccccc21)C(C)COC (centres undefined)	0.5%	-1%	0%	-8
CCc1c(C)nc(SCC(=O)N2CCN(c3ccccc3OC)CC2)[nH]c1=O	0.1%	-1%&-3%	-2%	-13
O=C(CN1CCN(CCOCCO)CC1)N1c2ccccc2Sc2ccc(Cl)cc21	6.7%	-5%	22%	12
CCCCN(CC)CCCNC(=O)Cn1nc(Cc2cccnc2)c2ccccc2c1=O	-0.4%	-7%	0%	5
COc1ccc(Cl)cc1C(=O)O/N=C(\N)c1ccc(Cl)cc1	1.4%	-7%	-22%	-16
CCOC(=O)c1ccc(NC(=S)NC2CC(C)(C)NC(C)(C)C2)cc1	0.8%	8%	15%	-22
COc1ccc(OCC(=O)Nc2ccc(N3CCN(C(=O)c4ccccc4C)CC3)cc2)cc1	?	-5%	0%	0
Cc1[nH]c(C)c(S(=O)(=O)Nc2cccc(Cl)c2C)c1C(=O)N1CCCC1	-0.4%	2%	-4%	nt
O=C(CN1CCN(c2ccc(Cl)cc2)CC1)Nc1ccc(F)cc1	3.5%	9%	-3%	0
O=C(Cc1ccccc1)NCC(=O)Nc1cc(Cl)ccc1Cl	-1.9%	-3%	-2%	nt
Cc1nc(SCc2ccccc2F)c2cnn(-c3ccccc3)c2n1	nt	-18%	nt	-5
N#CC(=C1CCCC1)c1nc(-c2ccccc2)cs1	0.1%	-50%	-1%	9
Cc1ccc(-n2ncc(C(=O)N3CCc4ccccc4C3)c2NC(=O)c2ccco2)cc1C	-6.2%	-9%	-3%	6
Cn1c(=O)c2c(ncn2CC(=O)N/N=C/C=C/c2ccco2)n(C)c1=O	0.2%	3%	1%	-1
COc1ccccc1Nc1nc(-c2c(C)nc3ncccn23)cs1	-0.1%	14%	-12%	7

Some entries already given, reduced to GLA inh pH 4.5 and Rango dissoc inh:
canonical_smiles | GLA inh pH 4.5 | Rango dissoc inh
CCc1cccc(C)c1N(C(=O)Cn1c(=O)[nH]c2ccccc21)C(C)COC (centres undefined) | -8 | 0%
CCc1c(C)nc(SCC(=O)N2CCN(c3ccccc3OC)CC2)[nH]c1=O | -13 | -2%

Next part:
SMILES	Rango-impB inh	miR-21 FLuc	Rango dissoc inh	GLA inh pH 4.5
Cc1ccc2c(c1)N(C(=O)CCC(=O)NC1CCN(Cc3ccccc3)CC1)CC(C)O2 (centres undefined)	1.4%	2%	0%	nt
CCOc1ccc(CN(C)C(=O)c2cccnc2OCC)cc1OC	-2.6%	5%	-7%	1
CC(C)(C)NC(=O)C(c1ccc(F)cc1)N(CC1CCCO1)C(=O)CCC(=O)Nc1ccccn1 (centres undefined)	1.1%	0%	1%	nt
CCOc1ccc(C(=O)NC(=S)Nc2ccc(NC(=O)CC)cc2)cc1[N+](=O)[O-]	-3.7%	-13%	-1%	3
CC1CC(C)CN(CC(C)(C)NS(=O)(=O)c2ccccc2)C1 (centres undefined)	5.0%	-8%	1%	-8
O=[N+]([O-])c1ccc(CC(Cl)c2ccccn2)cc1 (centres undefined)	-4.7%	nt	10%	nt
CCOc1ccc(N2CC(C(=O)NCCN3C(=O)S/C(=C\c4ccc(OC)cc4)C3=O)CC2=O)cc1 (centres undefined)	-0.7%	-2%	1%	0
COC(=O)c1ccc(COc2ccc3ccc(=O)oc3c2)o1	-4.4%	-6%	-3%	nt
O=C1C2CCCN2C(c2ccccc2)N1c1cccc(Cl)c1 (centres undefined)	1.8%	0%	0%	-2
O=C1C=C(O)c2[nH]c(=O)ccc2C1=O	?	nt	-13%	nt
C=CCn1c(SCC(=O)N2N=C(c3ccco3)CC2c2ccco2)nnc1-c1ccncc1 (centres undefined)	-1.5%	-3%	5%	5
Cc1ccc2c(CC(=O)OC3CCOC3=O)coc2c1 (centres undefined)	-2.7%	0%	8%	1
O=C(Nc1ccc(S(=O)(=O)N2CCOCC2)cc1)c1ccc(Cl)cc1	1.0%	11%	-7%	3
CC(=O)N1c2ccc(S(=O)(=O)N3CCC(C(=O)NC(C)c4ccccc4)CC3)cc2CC1C (centres undefined)	-5.1%	6%	-9%	nt
CCN1CCC(NC(=O)Nc2ccc(F)cc2F)CC1	1.0%	-7%	10%	-14
Cc1cc(NC(=O)CCC(=O)N(CC(=O)NCC2CCCO2)c2cccc(F)c2)no1 (centres undefined)	-0.1%	-3%	-5%	nt
CC1CCCC(NC(=O)c2ccc(CNc3c(N4CCCC4)c(=O)c3=O)cc2)C1C (centres undefined)	-1.1%	-14%	-13%	6
COc1cccc(-c2c(NC(=O)c3ccco3)oc3ccccc3c2=O)c1	1.7%	-7%	1%	nt
Cc1ccc(NC(=O)c2ncn(CCCN3CCN(Cc4cccc5ccccc45)CC3)n2)cc1C	3.2%	nt	-13%	nt
CC(C)C12CCC(C(=O)O)C(C1)C(=O)O2 (centres undefined)	-1.8%	-1%	2%	6

One compound at a time (already shown). Values in the order: Rango-impB inh, miR-21 FLuc, Rango dissoc inh, GLA inh pH 4.5
O=[N+]([O-])c1ccc(CC(Cl)c2ccccn2)cc1 (centres undefined) reads -4.7%, nt, 10%, nt
COc1cc(/C=N/NC(=O)C(N)=O)cc(OC)c1O reads 6.2%, 1%, 0%, -17
CCOc1ccc(C(=O)NC(=S)Nc2ccc(NC(=O)CC)cc2)cc1[N+](=O)[O-] reads -3.7%, -13%, -1%, 3
Cc1ccc(Nc2cc(C)nn2-c2nc(C)cc(=O)[nH]2)cc1 reads 4.4%, ?, -13%, 5
CCOC(=O)c1ccc(NC(=S)NC2CC(C)(C)NC(C)(C)C2)cc1 reads 0.8%, 8%, 15%, -22

Next section
SMILES	Rango-impB inh	miR-21 FLuc	Rango dissoc inh	GLA inh pH 4.5
Cc1ccccc1NC(=S)NC(NC(=O)c1ccccc1C)C(Cl)(Cl)Cl (centres undefined)	-0.8%	30%	21%	5
CC1CC(C)CN(CCCNC(=O)C2CCN(S(=O)(=O)N3CCCCC3)CC2)C1 (centres undefined)	4.0%	-3%	0%	11
CC(=O)c1ccc(NC(=O)CSc2nccn2C)cc1	-1.5%	-36%	10%	-1
Cc1ccc(C(=O)/C=C/c2ccc(Br)cc2)o1	?	-2%	3%	-7
O=C(O/N=C1\CCCCC1c1ccc([N+](=O)[O-])cc1[N+](=O)[O-])c1c(F)cccc1F (centres undefined)	-0.4%	-3%	-14%	-16
COc1ccccc1Nc1nc(NCc2ccco2)c2ccccc2n1	-1.5%	16%	-7%	-1
COC(=O)c1ccsc1NC(=O)CN1CCN(c2ncccn2)CC1	0.2%	-8%	18%	nt
CCCN1CCc2c(sc(NC(=O)CCS(=O)(=O)c3ccccc3)c2C(=O)OC)C1	?	4%	?	nt
O=C(NCc1ccco1)c1csc2c1CCCCC2	4.9%	-38%	-10%	2
CC(C)c1ccc(C(=O)NNC(=O)c2n[nH]c(=O)c3ccccc23)cc1	1.3%	nt	?	nt
O=C(COC(=O)CCc1ccc(S(=O)(=O)N2CCOCC2)cc1)NCc1ccccc1	-1.7%	0%	3%	7
Cc1ccc(CSCCNC(=O)c2ccccc2)cc1	2.0%	-16%	-5%	5
O=C(CN1CCN(S(=O)(=O)c2ccc(Cl)cc2)CC1)c1ccc(O)c(O)c1	-1.2%	-2%	7%	nt
CCOc1ccc(S(=O)(=O)N2CCN(C(=O)c3cc(-c4ccccc4)nn3-c3ccccc3)CC2)cc1	0.8%	nt	3%	nt
CNC(=O)c1nnc(Cc2ccc(F)cc2)o1	-2.3%	-4%	-18%	6
CCCn1cc(S(=O)(=O)CC(=O)Nc2ccc(OCC)cc2)c2ccccc21	-0.2%	-7%	1%	-4
CCOC(=O)c1sc(NC(=O)CSc2ncn[nH]2)c(C#N)c1C	-3.1%	-19%	0%	0
O=C(NCc1ccc(Cl)cc1)c1ccc(CNc2c(N3CCCC3)c(=O)c2=O)cc1	0.3%	1%	10%	1
CCOC(=O)N1CCC(N2C(=O)c3ccccc3C2Nc2ccc3c(C)cc(=O)oc3c2)CC1 (centres undefined)	-6.3%	-17%	-12%	4
CCOC(=O)N1CCN(C(=O)COC(=O)CNC(=O)c2ccc(C)cc2)CC1	-2.3%	nt	-1%	nt

Gathered by group, those above containing a cyano group (two)
SMILES	Rango-impB inh	miR-21 FLuc	Rango dissoc inh	GLA inh pH 4.5
N#CC(=C1CCCC1)c1nc(-c2ccccc2)cs1	0.1%	-50%	-1%	9
CCOC(=O)c1sc(NC(=O)CSc2ncn[nH]2)c(C#N)c1C	-3.1%	-19%	0%	0

Next part:
SMILES	Rango-impB inh	miR-21 FLuc	Rango dissoc inh	GLA inh pH 4.5
CCNc1nnc(SCC(=O)c2cc(C)n(C3CC3)c2C)s1	6.4%	nt	10%	nt
COc1ccc(C2=NN(c3nc(C(=O)O)cs3)C(O)(C(F)(F)F)C2)c(OC)c1 (centres undefined)	-3.9%	-18%	4%	7
CC(=O)NC(CC(=O)NC1CCCCC1)c1ccccc1 (centres undefined)	-3.1%	2%	8%	3
COc1cccc(NC(=O)c2cc([N+](=O)[O-])ccc2N2CCN(C)CC2)c1	-0.8%	-6%	1%	-7
CC(=O)NCCc1cc2cc(C)c(C)cc2[nH]c1=O	-6.3%	-7%	5%	-5
COc1ccc(OC)c(/C=N/NC(=O)c2ccc3nc[nH]c3c2)c1	?	5%	-18%	-1
COc1ccccc1Oc1coc2c(CN(C)C)c(O)ccc2c1=O	-2.1%	0%	3%	8
